# Vif A3G = inhibitors of Vif binding to APOBEC3G peptide, primary screen, biochemical, TR-FRET, GST-Vif 1-94, biotin-A3G peptide, dose response retest (AID 1117319); Virion infectivity factor (Human immunodeficiency virus type 1 group M subtype B (isolate …; TR-FRET GST-Vif / biotin-A3G peptide binding; higher % means a stronger effect; test concentration not given here; strong numbers were not always called active; inhibition, %; hits with a dose series show IC50 in µM; 260,000 compounds, 0.57% hits;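 active means above the screen mean plus three standard deviations and confirmed in dose response; inconclusive means results disagree or hit not tested in dose response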;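 further: Vif residues 1-94 fused to GST binding biotinylated APOBEC3G peptide 110-148; 0% = full assay without inhibitor and 100% = GST in place of GST-Vif; retest series ran down from 100 µM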
# MLL AF4-AF9 inh = inhibitors of AF4 peptide binding to AF9, primary screen, biochemical, AlphaScreen, biotin-AF4 peptide, FLAG-AF9, single point | inhibition, % at 10 µM | AID 651704, 2012 | 350,000 compounds, 0.47% hits;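 active means every replicate reaching a set inhibition limit, whatever the replicate mean, cut at about 25% in these data; inconclusive means mean inhibition reaches that limit but some replicates miss it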;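 further: 0% = plate neutral control median and 100% = total signal loss; the record names both 10 and 1 µM as test concentration; the first replicate is given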
# E coli growth = E. coli growth inhibition, primary screen, OD600; 330,000 compounds, 0.21% hits; Escherichia coli growth, 23 h; hits give low values; OD600 absorbance (concentration not given with the values);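 active means OD600 absorbance below the run mean of sample wells minus 3.6 SD, in any replicate, cut at about 0.56 in these data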;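 further: stock transfer was 300 nL into about 60 µL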
# HNF4A DNA FP = change in binding of human HNF4A to DNA, primary screen, biochemical, fluorescence polarization, FITC-DNA. Hepatocyte nuclear factor 4-alpha (Homo sapiens), P41235. 1 h. activity change, % at 10 µM. 360,000 compounds, 0.3% hits. AID 1224865, 2016; in the data active means activity change above about 30%, passing the limit was not always enough;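 further: controls were the assay level and a saturating level of protein; the project sought stronger binding though the title names inhibitors; some compounds called inactive have numbers as strong as hits; positive values seem to mean higher polarization but the record does not say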
# Target sequence (P41235 whole entry, looked up): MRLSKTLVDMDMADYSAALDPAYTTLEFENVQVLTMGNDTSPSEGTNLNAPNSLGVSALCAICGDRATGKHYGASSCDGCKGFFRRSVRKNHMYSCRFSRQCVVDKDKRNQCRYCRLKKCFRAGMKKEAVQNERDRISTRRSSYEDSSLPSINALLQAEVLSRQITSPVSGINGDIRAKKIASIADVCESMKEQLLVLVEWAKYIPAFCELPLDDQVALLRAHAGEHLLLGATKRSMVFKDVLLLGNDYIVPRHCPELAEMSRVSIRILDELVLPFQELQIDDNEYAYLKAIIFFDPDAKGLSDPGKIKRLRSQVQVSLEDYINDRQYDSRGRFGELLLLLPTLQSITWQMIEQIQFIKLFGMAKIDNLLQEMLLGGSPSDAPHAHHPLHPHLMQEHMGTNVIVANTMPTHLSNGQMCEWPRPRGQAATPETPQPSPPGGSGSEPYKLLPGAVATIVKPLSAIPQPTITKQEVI
# FGF22 binding = binders of human FGF22 protein, primary screen, FGF22 synaptogenesis inhibitor project, biophysical, thermal shift, single point | Fibroblast growth factor 22 (Homo sapiens), Q9HCT0 | recombinant FGF22 thermal shift, SYPRO orange fluorescence; percent of sucrose octasulfate shift, DMSO zero | calls only at 9.99 µM | 340,000 compounds, 1.5% hits;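 active means melting point raised past a set limit in the mean and every replicate; inconclusive means no clear call; three in four hits are not shown here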
# Target sequence (Q9HCT0 whole entry, looked up): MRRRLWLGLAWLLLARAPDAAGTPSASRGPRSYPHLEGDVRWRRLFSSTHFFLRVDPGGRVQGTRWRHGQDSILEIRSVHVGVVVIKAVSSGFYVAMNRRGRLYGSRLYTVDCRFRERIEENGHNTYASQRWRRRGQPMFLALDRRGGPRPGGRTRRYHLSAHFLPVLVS
# ALR inh = inhibitors of human ALR sulfhydryl oxidase, primary screen, biochemical, H2O2 detection, HRP-luminol luminescence, single point; purified ALR, DTT oxidation; FAD-linked sulfhydryl oxidase ALR (Homo sapiens), P55789; 290,000 compounds, 3.8% hits; inhibition, % (concentration not given with the values);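 active means mean and each replicate at 75% or more; inconclusive means only one of the two met; inactive means neither met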;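 further: stock transfer was 7.5 nL into about 7.5 µL; 0% = neutral wells and 100% = wells with inactivated enzyme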
# Target sequence (P55789 whole entry, looked up): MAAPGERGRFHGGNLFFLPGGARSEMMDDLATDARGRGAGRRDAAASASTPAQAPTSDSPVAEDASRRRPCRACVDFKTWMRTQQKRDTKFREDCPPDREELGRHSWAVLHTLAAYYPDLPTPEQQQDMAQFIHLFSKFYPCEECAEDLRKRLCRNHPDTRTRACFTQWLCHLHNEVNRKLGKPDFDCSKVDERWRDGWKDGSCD
# rRNA inh HTS = reduced GFP signal of wild-type E. coli, primary screen, bacterial rRNA inhibitor project, GFP/RFP fluorescence, OD600, single point | E. coli WT GFP vs humanized-ribosome RFP mutants, 24 h; hits give low values; DMSO median 0, no signal -100 | GFP signal change (wild-type ribosome), % (no concentration beside the values) | 350,000 compounds, 1.6% hits;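 active means significant combined selectivity score with lowered wild-type GFP, culture density cut under 30%, mutant RFP and density less affected; inactive means any of these conditions unmet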; further: one replicate is shown; some compounds called inactive have numbers as strong as hits
# rRNA inh HTS OD600 = also measured in rRNA inh HTS; calls as there; OD600 change, %; measured here: OD600 growth;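 optical density of the mix in the first replicate; 0 = DMSO median and -100 = no signal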
# rRNA inh HTS RFP = second read-out of rRNA inh HTS, no call of its own (marks repeat the call); RFP signal change, %; measured here: RFP humanized mutant strains;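 first replicate; 0 = DMSO median and -100 = no signal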
# The depositor's hits bear a star; i = inactive; ? = inconclusive; · = no result given; & = joins results of further samples. An excerpt. The share of hits here may be higher or lower than overall.
SMILES,Vif A3G,MLL AF4-AF9 inh,E coli growth,HNF4A DNA FP,FGF22 binding,ALR inh,rRNA inh HTS,rRNA inh HTS OD600,rRNA inh HTS RFP
CCOC(=O)c1[nH]c(C)c(C(=O)OCC(=O)NC2CCS(=O)(=O)C2)c1C (stereo not drawn),32%,-5.5,0.71,-1.5,i,·,1,-1,-3.2
COc1cccc(-c2cnc3c(c2)C(=O)N([C@H](C)CO)C[C@H](C)[C@H](CN(C)Cc2ccc4c(c2)OCO4)O3)c1,·,-1.9,·,·,i,·,1,5,0.6
CCc1ccc(NC(=O)C2CCN(C(=O)[C@@H]3Cc4ccccc4CN3)CC2)cc1,·,5.1,0.68,-4.6,i,-3,18,15,5.8
O=C1NC(c2ccncc2)C(C(=O)c2cccs2)C(O)(C(F)(F)F)N1 (stereo not drawn),2%,·,0.72,1.7,·,-10,·,·,·
COc1ccc(S(=O)(=O)Cc2ccc(C(=O)N3CCN(c4cc(Cl)ccc4C)CC3)o2)cc1,0%,-3.1,0.76,-3.0,i,-36,-17*,-6.8*,6.7*
COc1ccc(N2CCN(C(=O)CNS(=O)(=O)c3ccc(Br)s3)CC2)cc1,9%,-4.6,0.68,-0.5,i,58,·,·,·
Cc1ccccc1C(=O)NC(=S)NC1CCSC1=O (stereo not drawn),1%,·,0.7,1.0,·,4,·,·,·
COCCCN1C(=O)c2ccc(C(=O)Nc3cccc(OC)c3)cc2C1=O,-3%,·,0.69,3.4,·,-18,·,·,·
COc1ccc(C(OCC(O)CN(C)C2CCCCC2)c2ccc(OC)cc2)cc1 (stereo not drawn),3%,13,0.64,3.0,i,·,-8,-24,24
Nc1nonc1-n1nnc(C(=O)N/N=C/c2ccc(Cl)cc2Cl)c1CN1CCCCC1,·,2.8,·,1.2,i,·,2,-2,0.4
O=C(Cn1nc(-c2ccccc2)c2ccccc2c1=O)Nc1ccccn1,-6%,·,0.71,2.6,·,-17,·,·,·
COc1ccc2oc(-c3ccccc3)c(C(=O)N(C)C)c2c1,·,-1.8,0.7,5.2,i,-8,-16,-13,-7.5
COc1ccccc1Nc1nc(N)nc(CSc2ncccn2)n1,7%,·,0.67,0.8,·,-5,·,·,·
COc1ccc(C(C)C)cc1S(=O)(=O)NCc1ccccn1,-2%,·,0.68,-1.8,·,-4,·,·,·
COc1cccc(C(=O)Nc2ccc3c(c2)C(=O)N(C)C[C@H](OC)[C@H](C)CN(CCc2ccccc2)[C@@H](C)CO3)c1,·,3.0,·,·,i,·,-1,-4,6.6
CCOc1ccc(NC(=O)Nc2cc(C)ccc2F)cc1,2%,·,0.72,-2.9,·,-6,·,·,·
O=c1[nH]c(-c2ccc(Cl)cc2)cs1,-1%,1.2,0.68,-2.5,i,-66,3,-3,0.4
CCc1nnc(NC(=O)CSc2nnc(CCc3nc4ccccc4[nH]3)n2C)s1,2%,·,0.69,3.1,·,-8,·,·,·
Cc1ccc(Nc2nc(N)nc(CN3CCN(Cc4ccccc4)CC3)n2)cc1Cl,·,11,0.61,1.2,i,-4,-9,-17,5.0
CSc1nnc(NC(=O)c2ccco2)s1,·,-4.3,0.62,0.0,i,-11,3,8,0.5
COc1cc(NC(=O)CCl)ccc(=O)c1,10%,-5.0,·,2.2,i,·,8,18,5.3
CCCN(C)C[C@@H]1Oc2ncc(C#CCC(C)C)cc2C(=O)N([C@@H](C)CO)C[C@H]1C,·,7.3,·,·,i,·,3,3,-1.8
CN(CC(=O)N1CCCCC1)S(=O)(=O)c1cccc2nsnc12,·,1.2,0.68,4.1,i,-1,0,7,-1.2
CC(C)N1CCN(C(=O)C2CCC(=O)N(CCc3cccc(F)c3)C2)CC1 (stereo not drawn),·,1.0,0.68,3.0,i,·,4,7,-0.4
Cc1ccc(-n2ncc(-c3nn[nH]n3)c2N)cc1,-13%,0.7,0.69,-0.9,i,-2,5,5,1.4
SMILES,Vif A3G,MLL AF4-AF9 inh,E coli growth,HNF4A DNA FP,FGF22 binding,ALR inh,rRNA inh HTS,rRNA inh HTS OD600,rRNA inh HTS RFP
COc1ccc(S(=O)(=O)N2CCCC(C(=O)NCc3ccco3)C2)cc1OC (stereo not drawn),·,1.6,0.62,-2.3,i,3,-5,1,7.1
CCOC(=O)C1CCN(C(=O)Cn2cc(C(=O)C3CC3)c3ccccc32)CC1,7%,·,0.67,1.8,·,-3,·,·,·
CCCN(C(=O)c1c(-c2ccccc2)noc1C)c1c(N)n(Cc2ccccc2)c(=O)[nH]c1=O,-1%,-1.8,0.6,0.5,i,-5,·,·,·
O=C(C[C@H]1CC[C@H]2[C@@H](COC[C@@H](O)CN2C(=O)c2ccc(F)cc2)O1)N1CCOCC1,·,-1.6,·,·,i,·,6,8,-2.7
O=C(NCCc1ccc(Cl)cc1)c1ccc(CS(=O)Cc2ccc(Cl)cc2)o1 (stereo not drawn),·,-7.6,0.63,-0.7,i,-6,-52,-75,-10
O=C(NC(=O)N1CCN(c2cccc(Cl)c2)CC1)c1ccccc1,8%,·,0.68,-0.4,·,-1,·,·,·
Cc1cccc(NC(=O)CN2C(=O)N/C(=C/c3ccc(C)o3)C2=O)c1,·,·,0.71,9.6,·,0,·,·,·
c1ccc(-c2ccc(Oc3cc(N4CCOCC4)nc(-c4ccccc4)n3)cc2)cc1,12%,·,0.76,-2.1,·,-14,·,·,·
O=C(C[C@@H]1C[C@@H]2c3cc(NC(=O)CC4CC4)ccc3O[C@@H]2[C@@H](CO)O1)NCc1cccnc1,·,0.6,·,·,i,·,3,-5,-5.1
CC(=O)c1cc(CN2CCC(n3nccc3NC(=O)c3ccccc3Cl)CC2)cs1,-8%,0.5,0.67,1.3,i,-2,·,·,·
Cn1cnc(CCNC(=O)C[C@@H]2CC[C@@H]3[C@H](COC[C@H](O)CN3C(=O)C3CC3)O2)c1,·,-2.2,·,·,i,·,0,3,-4.6
CC(c1ccccc1)N(CCC(c1ccccc1)C1CCOC(C)(C)C1)C(=O)c1ccco1 (stereo not drawn),·,0.6,0.71,-0.6,i,-27,·,·,·
OCCC1CN(Cc2ccccc2O)CCN1CCCc1ccccc1 (stereo not drawn),1%,2.5,0.63,-3.5,i,6,5,1,-5.4
O=C(CSc1ccccn1)Nc1ccc2[nH]c(=O)[nH]c2c1,-1%,-1.6,0.64,5.7,i,17,9,11,-3.9
CC(C)C(=O)NNS(=O)(=O)c1ccccc1,2%,-5.4,0.68,4.6,i,15,2,4,0.0
N#Cc1ccccc1Cn1c(=O)n(CCCC(=O)NCc2ccc3c(c2)OCO3)c(=O)c2ccccc21,2%,·,0.72,4.9,·,·,·,·,·
Cc1cc(C)cc(Cn2cc(CN3CC(N4CCN(C)CC4)CS3(=O)=O)nn2)c1 (stereo not drawn),·,-4.3,·,-1.0,i,·,0,10,-5.0
CN1CCN(CCCCOc2ccc(Br)cc2)CC1,·,1.4,0.67,1.4,i,-2,2,4,0.2
CC(C)(C)NC(=O)CN(C(=O)c1ccc(CN2CCOCC2)o1)c1ccc2c(c1)OCCO2,-1%&-2%,·,0.67,-0.4,·,·,·,·,·
Cc1ccc(CNCC2CCCO2)o1 (stereo not drawn),-8%,·,0.67,-2.3,·,-6,·,·,·
Cc1ccc(-c2nc3ncccn3c2N)cc1,·,1.9,·,-0.9,i,·,21,17,-1.9
COc1ccc(CC(=O)N2CCOCC2)cc1OC,5%,·,0.7,3.3,·,-9,·,·,·
CCc1noc(C)c1C(=O)NC1CC(C)(C)Cc2c1cnn2-c1ccccc1 (stereo not drawn),-2%,-1.0,·,3.9,i,-4,14,9,0.3
COc1ccc(S(=O)(=O)N(CC(=O)Nc2cc(C)on2)Cc2ccccc2)cc1,-4%,·,0.7,-3.1,·,-4,·,·,·
CN(C)c1ccc(C(CNC(=O)c2ccc(-c3ccccc3)cc2)N2CCOCC2)cc1 (stereo not drawn),·,3.4,·,-2.3,i,6,4,8,0.7
SMILES,Vif A3G,MLL AF4-AF9 inh,E coli growth,HNF4A DNA FP,FGF22 binding,ALR inh,rRNA inh HTS,rRNA inh HTS OD600,rRNA inh HTS RFP
O=S(=O)(c1ccccc1)N1CCN(CC2CC3C=CC2C3)CC1 (stereo not drawn),?,-1.3,0.66,1.2,i,1,2,-3,-0.4
COc1ccc(-c2nc3ccccc3c(=O)[nH]2)cc1,0%,-1.8,0.69,-2.4,i,1,8,3,-1.9
COc1ccc(C(CC(=O)Nc2ccc(C)cc2)NC(=O)C(F)(F)F)cc1 (stereo not drawn),17%,-14,·,-0.9,i,-7,26,8,-0.1
CCOc1ccccc1-c1cc(C(=O)N2CCOCC2)c2ccccc2n1,-3%,1.8,0.7,-0.9,i,-5,-2,-8,1.0
COc1ccc(NC(=O)C2C3CC/C=C\CCC32)cc1 (stereo not drawn),·,-3.1,0.67,3.3,i,2,0,-14,-1.6
CSc1ccc(/C=N/N2CCN(c3ccccc3)CC2)cc1,·,-0.3,·,5.0,i,5,20,23,2.0
Cn1c(CSc2ncccn2)nnc1SCC(=O)N1CCCCC1,-2%,·,0.72,3.3,·,-9,·,·,·
Cc1coc2c(C)c3oc(=O)cc(-c4ccccc4)c3cc12,·,·,0.72,-1.1,·,-9,·,·,·
O=C1CN(C(=O)CSc2ccccn2)c2ccccc2N1,-11%,9.3,0.68,2.1,i,-1,5,16,-2.4
CN(C)CC(=O)N[C@@H]1CC[C@@H](CC(=O)NCc2ccccc2F)O[C@@H]1CO,·,-2.8,·,·,i,·,2,5,-2.1
Cc1onc(-c2ccccc2)c1C(=O)N/N=C/c1cc(Br)c(Br)o1,13%,·,·,1.0,·,-2,·,·,·
COc1ccc(S(=O)(=O)Nc2ccccc2C(=O)NC2CC2)cc1NC(C)=O,-14%,0.6,0.71,2.6,i,-6,·,·,·
COc1ccc(-c2noc(CCCC(=O)NC3CCCC3)n2)cc1,·,1.5,0.65,2.8,i,-3,-2,-3,0.2
CCN(CC(=O)Nc1ccc2c(c1)OCCO2)C(=O)C(C)Oc1ccc(Cl)cc1 (stereo not drawn),-2%,7.3,0.64,-5.2,i,0,-6,-4,1.4
COC(=O)CN1C(=O)[C@H]2[C@@H](c3ccc(C)o3)N3C(=O)CN(CCO)C(=O)[C@@]3(Cc3ccccc3)[C@H]2C1=O,·,·,·,0.2,i,-2,·,·,·
CC1(Oc2ccc(CC#N)cc2)CCN(Cc2ccc(-n3ccnc3)cc2)C1 (stereo not drawn),·,6.2,·,-2.3,i,·,11,12,1.4
C/C(=N\NS(C)(=O)=O)c1ccc(C)cc1,0%,·,·,-2.3,·,-9,·,·,·
O=C1c2ccccc2C(=O)N1CCCc1cn(C[C@H]2CC[C@@H]([C@@H]3CC[C@H](Cn4cc(CCCN5C(=O)c6ccccc6C5=O)nn4)O3)O2)nn1,·,0.5,·,-4.4,i,-1,-26,-39,-16

# Looked up above.
# `COC(=O)CN1C(=O)[C@H]2[C@@H](c3ccc(C)o3)N3C(=O)CN(CCO)C(=O)[C@@]3(Cc3ccccc3)[C@H]2C1=O` @ ALR inh = -2
# `Cc1coc2c(C)c3oc(=O)cc(-c4ccccc4)c3cc12` @ HNF4A DNA FP = -1.1
